Screening data from PubChem.
Mtb hypoxia rep = Mtb hypoxia fluorescent reporter inhibition | M. tuberculosis hypoxia-regulated fluorescent reporter, fluorescence | fluorescence inhibition, % (no concentration beside the values) | actives 0.1% (n = 300,000) | AID 1159583;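 active means 35 to 45% if threefold the growth effect, above 45% if 1.5-fold the growth effect; inactive means the rest, general growth blockers included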;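 further: wells of about 50 µL received 100 nL stock; 0% = vehicle wells and 100% = reference inhibitor wells; whole bacteria with a GFP reporter of the hypoxia response; strong numbers were not always called active; many hits fall short of the cut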
PrP 5UTR inh = suppresses PrP 5' UTR mRNA reporter expression; cell-based PrP 5' UTR mRNA reporter, plate reader; inhibition, % (no concentration beside the values); actives 0.35% (n = 340,000); AID 488862;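 active means every replicate at 50% or more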;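 further: 0 = median of the neutral control wells; tested in H4 reporter cells; numbers are from one replicate; inactives centre near -14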
Sa RN4220 lethal = kills Staphylococcus aureus RN4220. inhibition, % (no concentration beside the values). S. aureus RN4220 growth, OD600, 16 h. actives 0.33% (n = 330,000). AID 1259311;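 active means z-score of -3 or lower and OD600 up to 0.18 on both plates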;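 further: plate controls were untreated cells for no effect and reference antibiotic for full effect; stock transfer was 100 nL into about 80 µL; one replicate is shown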
ugtP null kill = kills S. aureus RN4220 lacking UgtP; growth inhibition, % (no concentration beside the values); S. aureus RN4220 ugtP deletion, OD600 growth, 16 h; some inactives read as strong as hits; actives 0.54% (n = 330,000);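 active means z-score under -3 and OD600 up to 0.15 on both plates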;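 further: plate controls were untreated wells for no effect and antibiotic for full effect; wells of about 80 µL received 100 nL stock; the first replicate is given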
BJeLR viability = BJeLR cell viability loss; actives 0.17% (n = 300,000); BJeLR (HRASV12) viability, CellTiter-Glo ATP luminescence, 48 h; reference of the scale not given here; inhibition, % (test concentration not listed); AID 1554;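 active means replicate mean above 50%; inconclusive means above 50% but judged a plate artefact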;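 further: 50 nL library stock added to about 25 µL; numbers are from one replicate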
Autofluor counter = flagged as autofluorescent in microsphere protease counterscreen. compound autofluorescence counterscreen, microsphere flow cytometry; active compounds read high. actives 3.1% (n = 360,000). fluorescence intensity (no concentration beside the values);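 active means at least 3 SD above the mean of all compounds, about 16000 in these data; inconclusive means too few beads counted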;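 further: 100 nL of 1 mM stock went into each well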
Mtb hypoxia rep growth = recorded beside Mtb hypoxia rep, whose call it bears; growth inhibition, %; measured here: M. tuberculosis growth (absorbance);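 0% = vehicle and 100% = reference antibiotic; read after six days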
The depositor's hits bear a star; ? = inconclusive; / = not tested or not shown; & = joins results of further samples.

No. | SMILES | Mtb hypoxia rep | Mtb hypoxia rep growth | PrP 5UTR inh | Sa RN4220 lethal
1 | CC(C)(C)Nc1nc(Nc2ccc([N+](=O)[O-])cc2)nc(NC(C)(C)C)n1 | -9 | -3 | -7 | -9.1
2 | Cc1ccc(NC(=O)CCc2ccc(C)o2)c(Br)c1 | 6 | 2 | -13 | 12
3 | C/C(=N\NC(=O)c1cccnc1)c1ccc(C)c([N+](=O)[O-])c1 | / | / | -31 | /
4 | CC(=O)Nc1ccc(C(=O)/C=C/c2ccco2)cc1 | -6 | 0 | -22 | 8.9
5 | COc1ccc(Cl)cc1NC(=O)C1CSC(c2ccncc2)=N1 (stereo not given) | 6 | 10 | 0 | 20
6 | O=C(O)CN1C(=O)COc2cc(S(=O)(=O)N3CCCC3)ccc21 | / | / | -23 | 3.8
7 | CC(=O)Nc1ccc(NC(=O)Cn2cc3c(n2)CCCC3)cc1 | 2 | 9 | -14 | -9.3
8 | CCC(C)NC(=O)C1CC(=O)N(CCc2ccc(F)cc2)C1 (stereo not given) | -5 | -5 | -6 | -1.6
9 | CCOc1ccc(CCNC(=O)COC(=O)Cc2ccc(OC)c(OC)c2)cc1OCC | 2 | -3 | -1 | 0.5
10 | NC1=NC(c2ccc(Br)cc2)n2c(nc3ccccc32)N1 (stereo not given) | 5&0 | 8&5 | -7&-26 | 21&14

No. | ugtP null kill | BJeLR viability | Autofluor counter
1 | -10 | 4 | 3572
2 | 3 | -8 | 3907
3 | / | 8 | 4381
4 | -5 | -6 | 2568
5 | 1 | -7 | 4455
6 | 5 | -2 | 6209
7 | -4 | 7 | 2433
8 | -2 | -3 | 4004
9 | 5 | 1 | 5281
10 | 77&72 | -8 | 3769&6003

The list goes on:
No. | SMILES | Mtb hypoxia rep | Mtb hypoxia rep growth | PrP 5UTR inh | Sa RN4220 lethal
11 | COc1c(CC=C(C)C)cc(C2CC(=O)c3c(O)cc(O)cc3O2)cc1CC=C(C)C (stereo not given) | / | / | -35 | 21
12 | COc1ccc(C2CC(=O)Oc3c(C(CCN4CCCCC4)c4ccc(N(C)C)cc4)c(OC)cc(OC)c32)cc1 (stereo not given) | -6 | -3 | -19 | 1.7
13 | CCOc1ccccc1-c1nc(-c2ccc(NC(=O)c3ccc(Br)o3)cc2)no1 | / | / | / | -5.3
14 | COc1cc(NC(=O)CN2CCN(S(=O)(=O)c3ccc(C(C)C)cc3)CC2)cc(OC)c1 | / | / | -25 | -2.5
15 | COc1cccc(CC2(CO)CCN(Cc3cn(C)nc3C)CC2)c1 | 11 | 9 | 2 | 3.5
16 | Cc1ccc(NC(=S)NC(=O)C2CCC2)cc1C | 14 | 17 | -68 | -6.5
17 | O=C(O)c1ccc(Oc2ccc(C(F)(F)F)cn2)cc1 | -6 | 0 | 0 | 0.8
18 | O=C(NCC(=O)N1CCN(c2ccccc2)CC1)c1ccc(Cl)cc1 | -9 | 8 | -24 | 6.2
19 | C=CCSc1nc(N)c2c3c(sc2n1)CN(C)CC3 | 9 | 1 | -27 | -1.4
20 | COc1ccc(C)cc1S(=O)(=O)N(CC(=O)O)c1ccc(F)cc1 | / | / | -10 | -3.8

No. | ugtP null kill | BJeLR viability | Autofluor counter
11 | 27 | -6 | 5784
12 | 0 | 2 | 3918
13 | -5 | -2 | /
14 | -14 | / | 2671
15 | 11 | 3 | 4211
16 | 17 | 1 | 6169
17 | -5 | 3 | 4762
18 | -4 | -6 | 2975
19 | 10 | -3 | 4253
20 | -6 | -8 | 2709

(next part)
No. | SMILES | Mtb hypoxia rep | Mtb hypoxia rep growth | PrP 5UTR inh | Sa RN4220 lethal
21 | COC(=O)c1nn(-c2ccccc2)c(Cl)c1/C=N/O | / | / | 3 | /
22 | COC(=O)c1ccc(S(=O)(=O)N(C2CCCCC2)C2CCCCC2)n1C | 0 | -5 | -9 | 6.5
23 | CCc1nccn1S(=O)(=O)c1ccc(OC)c(C)c1C | -4 | 6 | -8 | 2.1
24 | CCCCSc1cc(=O)[nH]c(N)n1 | -1 | -5 | 2 | -1.1
25 | O=C(CNC(=S)N(Cc1ccccc1F)C1CCCCC1)NC1CC1 | 10 | 3 | -26 | 5.7
26 | CCOC(=O)c1ccc(NC(=O)CSc2ccc(-c3ccccn3)nn2)cc1 | 17 | 5 | -9 | 2.7
27 | COC(=O)c1ccc2nc(Nc3nc4c(F)cc(F)cc4s3)sc2c1 | 9 | 3 | 36 | -0.3
28 | CCOc1ccc(NC(=O)CN(C)C(=O)c2cccc(S(=O)(=O)N3CCCC3)c2)cc1OCC | 12 | 0 | -19 | 2.0
29 | CCC(CC)C(=O)Nc1cccc(C(=O)NCCc2ccccc2)c1 | 6 | 2 | -38 | 3.0
30 | CCOC(=O)CCC(=O)Nc1ncnc2c1C(c1ccccc1)c1c(ccc3ccccc13)O2 (stereo not given) | 6 | -1 | -7 | -3.5

No. | ugtP null kill | BJeLR viability | Autofluor counter
21 | / | 7 | 4858
22 | 7 | -6 | 4708
23 | 0 | -3 | 9415
24 | 0 | -6 | 3036
25 | -4 | 5 | 10788
26 | -4 | 4 | 6576
27 | 2 | -8 | 2765
28 | 6 | / | 6073
29 | 4 | -2 | 4320
30 | 0 | / | 3763

Next results:
No. | SMILES | Mtb hypoxia rep | Mtb hypoxia rep growth | PrP 5UTR inh | Sa RN4220 lethal
31 | Cc1cc([N+](=O)[O-])c(Cl)cc1NC(=O)C(C)C | 10 | 4 | -21 | 5.9
32 | Cc1ccnc(NS(=O)(=O)c2ccc(NC(=O)c3cncc(Br)c3)cc2)n1 | 17 | 21 | -16 | 4.7
33 | O=C(Nc1ccc(Br)cc1)C1CCCC1 | 7 | 16 | -15 | -0.2
34 | O=C(Nc1ccc(Cl)c(Cl)c1)N1CCCCCC1 | 0 | 2 | -51 | -4.6
35 | CN1CCc2c(sc3nc(SCC(N)=O)n(-c4ccccc4)c(=O)c23)C1 | / | / | -14 | /
36 | Cc1cccc(NC(=O)CSc2ccc(-c3cccs3)nn2)c1C | 9 | 5 | -7 | 10
37 | COc1cc(/C=C2/SC(=S)N(Cc3ccccc3)C2=O)cc(OC)c1O | -2 | -8 | -6 | 0.8
38 | COc1cc(CCC(=O)OCC(=O)N(CCC#N)c2ccccc2)cc(OC)c1OC | 0 | -4 | -13 | -3.0
39 | COc1ccccc1NC(=O)Cc1noc(CSc2cc(C)c3ccccc3n2)n1 | 6 | 0 | -23 | 7.3
40 | Cc1nc2cc(C(=O)OCC(=O)NC3CCS(=O)(=O)C3)ccc2n1-c1ccccc1 (stereo not given) | 15 | 14 | -2 | 5.0

No. | ugtP null kill | BJeLR viability | Autofluor counter
31 | 6 | -7 | 2296
32 | 2 | -1 | 2653
33 | 13 | -5 | 3641
34 | -8 | 7 | 6199
35 | / | 5 | ?
36 | 1 | 6 | 9241
37 | -6 | 12 | 4275
38 | 9 | -3 | 5182
39 | 4 | -12 | 7932
40 | -3 | 14 | ?

Additional entries follow.
No. | SMILES | Mtb hypoxia rep | Mtb hypoxia rep growth | PrP 5UTR inh | Sa RN4220 lethal
41 | Cc1ccnc(N=O)c1 | -1 | 9 | -19 | 1.9
42 | CCCC1SC(=NN=Cc2ccc(C)cc2)N(Cc2ccc(OC)cc2)C1=O (stereo not given) | 1 | 7 | / | 1.5
43 | Fc1cccc(NC(=S)NC2CCCCCCC2)c1 | 5 | 7 | 2 | -6.1
44 | O=C(Cn1ccc(NC(=O)OCc2ccccc2)nc1=O)NCCCN1CCCC1=O | 13 | 7 | -14 | 4.8
45 | O=C(O)C1CSC(c2ccco2)N1 (stereo not given) | / | / | -22 | /
46 | Cc1cccc(NC(=O)CCN2CCN(C)CC2)c1 | 6 | 6 | -12 | 3.2
47 | Cc1cc(C=NNC(=O)C(O)(c2ccccc2)c2ccccc2)c(C)n1-c1cccc(C(=O)O)c1 | -12 | 2 | / | 5.2
48 | CC1(C)CC(=O)C2=C(C1)N(c1ncn[nH]1)C(N)=C(C#N)C2c1ccccc1 (stereo not given) | 1 | 6 | -8 | 0.6
49 | CSc1ncccc1C(=O)NCC12CC3CC(CC(C3)C1)C2 | 18 | 7 | -33 | 3.9
50 | O=C1CN(C(=O)c2cc(Br)c(Br)s2)c2ccccc2N1 | 8 | 8 | -8 | 3.1

No. | ugtP null kill | BJeLR viability | Autofluor counter
41 | 5 | / | 3609
42 | 37 | / | /
43 | -3 | / | 4377
44 | 1 | / | 2981
45 | / | 5 | 4971
46 | 10 | 1 | 3905
47 | 0 | / | /
48 | 3 | -3 | 2360
49 | -1 | -11 | 5344
50 | 10 | 8 | 4414

(listing goes on)
No. | SMILES | Mtb hypoxia rep | Mtb hypoxia rep growth | PrP 5UTR inh | Sa RN4220 lethal
51 | COc1cc(NC(=O)c2cccc3c2C(=O)N(C2CCCCC2)C3)cc(OC)c1OC | 1 | -5 | 13 | -2.8
52 | COc1ccc(N(CC(=O)NCCSc2ccccc2)S(=O)(=O)c2ccccc2)cc1 | 0 | 0 | -9 | 6.0
53 | O=C(O)c1ccc(NC2=CC(=NS(=O)(=O)c3ccccc3)c3ccccc3C2=O)cc1 | 9 | 5 | / | 11
54 | CC(C)CCNC(=O)Cc1ccc(Nc2nc(=S)[nH]c3ccccc23)cc1 | 13 | 12 | -10 | -3.0
55 | COc1ccccc1NC(=O)CCC(=O)OC(C)C(=O)c1ccccc1 (stereo not given) | -8 | -4 | -20 | 2.1
56 | CC(=O)N1CCCN(Cc2cn(-c3ccc(C)cc3)nc2-c2ccc(F)cc2)CC1 | 1 | 20 | -27 | 17
57 | COC(=O)c1ccccc1NC(=O)CSc1nccn1C | -12 | 4 | -8 | 29
58 | CCCC(C)NC(C)C(=O)NC1CCCC1 (stereo not given) | 8 | 7 | -31 | 4.2
59 | CC1CCCCN1CCCNC(=O)CCCN1C(=O)c2cccnc2Sc2ccccc21 (stereo not given) | 8 | -7 | -9 | 3.2

No. | ugtP null kill | BJeLR viability | Autofluor counter
51 | -16 | -9 | 4180
52 | -2 | 10 | 4431
53 | 2 | / | /
54 | 6 | -14 | 4263
55 | 12 | 1 | 3834
56 | 2 | 7 | 4454
57 | 20 | -4 | 3295
58 | 2 | 8 | 10530
59 | 4 | -2 | 4163

In the list so far, 9 have an aryl thioether with sulfur outside any ring:
No. | SMILES | Mtb hypoxia rep | Mtb hypoxia rep growth | PrP 5UTR inh | Sa RN4220 lethal
19 | C=CCSc1nc(N)c2c3c(sc2n1)CN(C)CC3 | 9 | 1 | -27 | -1.4
24 | CCCCSc1cc(=O)[nH]c(N)n1 | -1 | -5 | 2 | -1.1
26 | CCOC(=O)c1ccc(NC(=O)CSc2ccc(-c3ccccn3)nn2)cc1 | 17 | 5 | -9 | 2.7
35 | CN1CCc2c(sc3nc(SCC(N)=O)n(-c4ccccc4)c(=O)c23)C1 | / | / | -14 | /
36 | Cc1cccc(NC(=O)CSc2ccc(-c3cccs3)nn2)c1C | 9 | 5 | -7 | 10
39 | COc1ccccc1NC(=O)Cc1noc(CSc2cc(C)c3ccccc3n2)n1 | 6 | 0 | -23 | 7.3
49 | CSc1ncccc1C(=O)NCC12CC3CC(CC(C3)C1)C2 | 18 | 7 | -33 | 3.9
52 | COc1ccc(N(CC(=O)NCCSc2ccccc2)S(=O)(=O)c2ccccc2)cc1 | 0 | 0 | -9 | 6.0
57 | COC(=O)c1ccccc1NC(=O)CSc1nccn1C | -12 | 4 | -8 | 29

No. | ugtP null kill | BJeLR viability | Autofluor counter
19 | 10 | -3 | 4253
24 | 0 | -6 | 3036
26 | -4 | 4 | 6576
35 | / | 5 | ?
36 | 1 | 6 | 9241
39 | 4 | -12 | 7932
49 | -1 | -11 | 5344
52 | -2 | 10 | 4431
57 | 20 | -4 | 3295

Shown screen by screen: entries from further up.
43) Fc1cccc(NC(=S)NC2CCCCCCC2)c1
57) COC(=O)c1ccccc1NC(=O)CSc1nccn1C
Screen / compound no.	43	57
Mtb hypoxia rep	5	-12
Mtb hypoxia rep growth	7	4
PrP 5UTR inh	2	-8
Sa RN4220 lethal	-6.1	29
ugtP null kill	-3	20
BJeLR viability	/	-4
Autofluor counter	4377	3295
